# High-throughput results as filed in PubChem.
# VDR inh – vitamin D3 receptor (human) inhibition; P11473; Potency, µM, inactives show max response, negative = inhibition, actives largely listed as inhibitors; hit rate 0.93% among 400,000; VDR-SRC2-3 peptide fluorescence polarization, 2 h; active means well fitted inhibition curve with a large enough effect; inconclusive means small, poorly fitted or top-dose-only effect, or another doubt; inactive means no such curve, though single readings can be large or run the other way; further: series mostly up to about 120 µM
# Target sequence (P11473 whole entry, looked up): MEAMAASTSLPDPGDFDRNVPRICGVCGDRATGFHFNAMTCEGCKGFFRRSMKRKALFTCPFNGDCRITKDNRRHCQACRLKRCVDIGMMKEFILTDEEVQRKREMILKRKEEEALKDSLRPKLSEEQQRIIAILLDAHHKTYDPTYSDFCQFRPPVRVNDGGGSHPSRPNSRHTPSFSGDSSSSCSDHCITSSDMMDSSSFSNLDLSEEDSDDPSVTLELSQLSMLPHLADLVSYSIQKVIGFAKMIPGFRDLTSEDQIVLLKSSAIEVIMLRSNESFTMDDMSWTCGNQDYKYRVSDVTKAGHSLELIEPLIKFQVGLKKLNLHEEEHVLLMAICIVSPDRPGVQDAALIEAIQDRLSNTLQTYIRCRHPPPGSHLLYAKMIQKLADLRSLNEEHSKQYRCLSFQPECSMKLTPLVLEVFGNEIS
#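 Fluorescence polarization assay of small-molecule disruption of VDR binding to coregulator peptide SRC2-3. Compounds and controls pin-transferred, then read after 2 h incubation at ambient room temperature.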
# The depositor's hits bear a star; u = inconclusive. On the % scale 0 is the no-effect control and ±100 the full control effect; potency means the concentration at half of the fitted maximal effect. A portion of the library; count on the stated rates, not on these rows.
SMILES	VDR inh
C=CCNC(=O)c1c(CSc2ccc(F)cc2)noc1C(=O)NCCC	-11.7%
CCc1ccc(NC(=O)CSC2=Nc3ccccc3C3=NC(CCC(=O)NCc4cccs4)C(=O)N23)cc1 (stereo not drawn)	6.9%
COc1ccc2c(CC(=O)N3CCc4ccccc43)coc2c1	-3.3%
CCN1C(=O)C(O)(CC(=O)c2ccccn2)c2ccccc21 (stereo not drawn)	1.4%
Cc1cc(C)nc(N(C#N)Cc2cccc([N+](=O)[O-])c2)n1	-19.8%
Cc1nc2ccccc2nc(C)c1=NOCc1cccc(F)c1	-9.2%
O=C(COc1ccccc1)N1c2ccccc2Sc2ccccc21	-2.4%
O=C(NC12CC3CC(CC(C3)C1)C2)c1ccco1	-4.5%
O=C(NC1(C(F)(F)F)C(=O)Nc2c1c(=O)[nH]c(=O)n2CCc1ccccc1)c1ccc(Cl)cc1 (stereo not drawn)	12.4%
CC(C)(C)C(=O)Nc1nnc(SCC(=O)NC2CCCCC2)s1	-13.6%
Cc1cc(C)n(CC(=O)NNC(=O)COc2ccc(Cl)cc2Cl)n1	-6.7%
Cc1ccccc1-c1cc(-c2ccccc2O)n[nH]1	0.1%
CCc1ccc(-n2c(N3CCN(c4cccc(C)c4C)CC3)nc3ccccc3c2=O)cc1	-13.1%
Cc1sc(NC(=O)C2CSC3(C)CCC(=O)N23)nc1-c1ccccc1 (stereo not drawn)	-4.7%
NC(CCCP(=O)(O)O)C(=O)O (stereo not drawn)	-6.7%
Cc1c(F)cccc1NC(=O)CCC(=O)O	u
O=C(Cc1c(O)c2ccccc2[nH]c1=O)NCc1ccc(F)cc1	-1.7%
CC(=O)C1=CN(Cc2ccccc2)CCC1=O	-16.7%
COc1cccc(N2C(=O)C3CC=C(Cl)CC3C2=O)c1 (stereo not drawn)	-2.7%
O=C(NNC(=S)NC1CCCCC1)c1ccccc1Br	-2.1%
COc1ccc(CNc2ncc(-c3ccc(F)cc3)n2C)c2ccccc12	-11.7%
COc1cccc(C(c2sc3nc(C)nn3c2O)N2CCC3(CC2)OCCO3)c1 (stereo not drawn)	-16.7%
O=C(c1ccccc1SCc1ccc(F)cc1)N1CCOCC1	2.6%
COC(=O)c1c(NC(=O)Cc2cccs2)sc2c1CCCC2	1.0%
CCN1CCN(CCCNC(=O)c2cc3sccc3n2CC)CC1	-20.6%
CCOC(=O)Cc1nc(-c2ccccc2)n[nH]1	5.6%
CCOC(=O)c1c(C)[nH]c(=S)c(C#N)c1-c1ccc(OC)cc1	-2.6%
CC(=O)N1CC23C=CC(CC2CC12CCCCCC2)O3 (stereo not drawn)	u
NNC(=O)CN1C(c2ccccc2)=Nc2ccc(Br)cc2C1c1ccccc1 (stereo not drawn)	u
CNC(=O)CC1C(=O)N(c2ccc(Cl)cc2)C(=S)N1CCc1ccc(OC)c(OC)c1 (stereo not drawn)	-1.5%
Cc1ccc(OCc2nc(-c3ccc(C(=O)NCCc4ccc(Cl)cc4)cc3)oc2C)cc1	2.2%
Cc1ccc(C(=O)N2CCN(S(=O)(=O)c3ccccc3C#N)CC2)cc1S(=O)(=O)N1CCOCC1	3.3%
Cc1cccc(N2C(=O)CSC23C(=O)N(Cc2cccc(C(F)(F)F)c2)c2ccccc23)c1 (stereo not drawn)	6.9%
O=C(NCC1CCCO1)C1C2C=CC3(CN(Cc4cccs4)C(=O)C13)O2 (stereo not drawn)	0.3%
Cc1cc(C)c(CSc2nnnn2-c2ccc(C(=O)O)cc2)c(C)c1	0.5%
Cc1ccc(C2=NN(S(C)(=O)=O)C(c3ccc4nccnc4c3)C2)cc1 (stereo not drawn)	-12.4%

# Rewritten with each value named: two of the compounds above.
O=C(NNC(=S)NC1CCCCC1)c1ccccc1Br
  VDR inh = -2.1%
COc1ccc(CNc2ncc(-c3ccc(F)cc3)n2C)c2ccccc12
  VDR inh = -11.7%

# Next part.
SMILES	VDR inh
COc1ccccc1-c1cc(C(=O)Nc2sc3c(c2C#N)CCC(C)C3)c2ccccc2n1 (stereo not drawn)	-7.4%
Cc1cc(=S)[nH]c2c(C)cccc12	3.0%
c1cc2c3c(cccc3c1)-c1cnccc1-2	-6.2%
CCn1cc(S(=O)(=O)c2ccccc2)c(=O)c2cc(F)c(N3CCN(c4ccccc4)CC3)cc21	8.0%
c1ccc2sc(N3CCOCC3)nc2c1	0.0%
O=C(NC(=S)Nc1nc(-c2ccccc2)cs1)c1cccs1	-15.3%
CC(O)CCC(=O)NCCNC(=O)CCC(C)O (stereo not drawn)	u
COCCNC(=S)N1C2CCC1CC(NC(=O)NC13CC4CC(CC(C4)C1)C3)C2 (stereo not drawn)	8.7%
O=C(NNC(=O)c1cc(-c2ccc(Cl)cc2Cl)nc2ccccc12)Nc1ccccc1	-7.9%
Cc1c(Br)c([N+](=O)[O-])nn1CC(=O)Nc1ccc2nc3n(c(=O)c2c1)CCCC3	0.1%
COc1ccc(C(=O)C2CCCN(C(=O)Cn3cncn3)C2)cc1OC (stereo not drawn)	8.5%
O=C1OC(N2C(=O)CC[C@H]2C(=O)Nc2ccc(F)c(F)c2)c2ccccc21 (stereo partly drawn)	-9.0%
Nn1c(-c2ccco2)n[nH]c1=S	5.0%
CNC(=O)Cc1csc2ccc(C)cc12	-7.5%
CCCN(CCC)S(=O)(=O)c1ccc(Cl)c(OC)c1	8.5%
Cc1ccnn1CC(=O)N/N=C/c1c[nH]c2ccccc12	-9.6%
CCCCn1c(CN2C(=O)c3ccccc3C2=O)nc2ccccc2c1=O	4.5%
CCOc1ccc(S(=O)(=O)NCCC(=O)NCC2CCCO2)cc1 (stereo not drawn)	-3.3%
COC(=O)c1ccc(C2c3[nH]c4ccccc4c3C[C@H]3C(=O)N(C)CC(=O)N23)cc1 (stereo partly drawn)	22.8%
Cc1ccc(C)c(N(C(=O)Cc2cccs2)C(C(=O)NC2CCCC2)c2ccc(C)o2)c1 (stereo not drawn)	3.8%
COc1ccc(NC(=O)c2ccc(Cl)c(S(=O)(=O)NCC3CCCO3)c2)c(OC)c1 (stereo not drawn)	-1.8%
COc1ccc(/C=N/NC(=O)c2nn(-c3ccc(Cl)cc3)c(=O)c3c(N)scc23)cc1	u
CC(=O)c1c(C)[nH]c(C(=O)N2CCN(C(=O)c3ccco3)CC2)c1C	-4.1%
C=CCN(CC=C)C(=S)NC(=O)Cc1cccc2ccccc12	0.2%
CCN(CC)C(=O)N1CCN(S(=O)(=O)c2ccc(C)c(C)c2)CC1	0.6%
CCOC(=O)c1c(NC(=O)c2ccc(C)cc2)sc2c1CC(C)(C)OC2	-20.9%
CCc1cccc(CC)c1N(COC)C(=O)Cn1c(CO)nc2ccccc21	2.6%
CCc1ccc(OCC(=O)N(Cc2ccco2)Cc2ccco2)cc1	3.1%
CCOC(=O)C1(CCOC)CCN(Cc2cnc(-c3cccc(C)c3)nc2)CC1	0.7%
CCOc1ccc(C2/C(=C(\O)c3ccc4c(c3)OCCO4)C(=O)C(=O)N2CCN2CCOCC2)cc1OC (stereo not drawn)	28.0%
COc1ccc(NC(=O)/C(=C\c2cccnc2)NC(=O)c2cccs2)cc1	-26.8%
Cc1cccc(NC(=O)C2CCCN(S(=O)(=O)c3cccc4cccnc34)C2)c1 (stereo not drawn)	-10.2%
CCOC(=O)C1=C(COC(=O)/C=C/c2ccc(OC)cc2OC)NC(=O)NC1C (stereo not drawn)	1.0%
O=C1CCN(Cc2nnnn2CC2CCCO2)c2ccccc2N1 (stereo not drawn)	-16.4%
CC(=O)c1ccc(OCC(O)CN2C(C)CCCC2C)cc1 (stereo not drawn)	-0.8%
COc1ccc(CCNC(=O)COC(=O)c2sc(C)nc2C)cc1	-6.8%
O=C(CC1N=C2c3ccccc3N=C(SCc3ccccc3F)N2C1=O)NCCc1ccccc1 (stereo not drawn)	13.8%
COc1cc(/C=C(\C#N)C(=O)c2c[nH]c3ccccc23)cc(OC)c1O	12.0%
Cc1noc(C)c1COc1cccc(C(=O)OCC(=O)NCCN2C(=O)CSC2=O)c1	-2.4%
Cc1ccc2c(c1)N(CC(=O)NCCc1ccccc1)C(=O)c1cccnc1O2	-1.2%
CC(C)C[C@H](NC(=O)c1nc[nH]c1C(=O)NCc1ccc(CNC(=O)OC(C)(C)C)cc1)C(=O)OCc1ccccc1	-14.8%
c1ccc2c3c(c(CN4CCCCC4)cc2c1)COC3	2.2%
CC(=O)C1C(c2ccccc2)c2c(noc2C)CC1(C)O (stereo not drawn)	-2.4%
CCOC(=O)C1(Cc2cccc(OC)c2)CCCN(S(=O)(=O)c2cccnc2)C1 (stereo not drawn)	-6.1%
CC1CC/C(=N/Nc2ccccc2)C(=O)N1 (stereo not drawn)	-9.9%
COc1ccc(NC(=O)c2sc3nc[nH]c(=O)c3c2C)cc1	6.8%
CC(=O)n1cc([C@H]2C=C(C(=O)N3CCN(Cc4ccccc4)CC3)O[C@@H](OCCCCO)C2)c2ccccc21	-11.9%
Cc1cc(COc2ccccc2)oc1C(=O)O	-15.4%

# Part of the list above in order of length of the SMILES, lowest first.
SMILES	VDR inh
Cc1cc(COc2ccccc2)oc1C(=O)O	-15.4%
CC1CC/C(=N/Nc2ccccc2)C(=O)N1 (stereo not drawn)	-9.9%
CC(=O)C1C(c2ccccc2)c2c(noc2C)CC1(C)O (stereo not drawn)	-2.4%
Cc1ccc2c(c1)N(CC(=O)NCCc1ccccc1)C(=O)c1cccnc1O2	-1.2%
COc1cc(/C=C(\C#N)C(=O)c2c[nH]c3ccccc23)cc(OC)c1O	12.0%
O=C(CC1N=C2c3ccccc3N=C(SCc3ccccc3F)N2C1=O)NCCc1ccccc1 (stereo not drawn)	13.8%
CC(C)C[C@H](NC(=O)c1nc[nH]c1C(=O)NCc1ccc(CNC(=O)OC(C)(C)C)cc1)C(=O)OCc1ccccc1	-14.8%

# (listing goes on)
SMILES	VDR inh
CSc1ccccc1OCc1cc(C(=O)NC(C)CCn2cccn2)no1 (stereo not drawn)	5.9%
COc1cccc(NC(=O)NCCCCc2ccccc2)c1	2.9%
COc1ccc(C(C(=O)NC(C)(C)C)N(Cc2ccccc2)C(=O)CCC(=O)Nc2cc(C)on2)cc1 (stereo not drawn)	7.0%
CN(C)C(=O)c1ccc(-c2cc(NCc3ccccc3)ncn2)cc1	u
CCOC(=O)c1cc(S(=O)(=O)NCc2ccc(F)cc2)[nH]n1	13.5%
Cc1cc(C)n(-c2ccc(C(=O)OCC(=O)Nc3ccc(Cl)cc3[N+](=O)[O-])cc2)n1	-1.5%
CN(CC1CCN(CCc2cccc(C(F)(F)F)c2)CC1)C(=O)c1ccc(F)cc1	5.1%
Cc1cccc(C)c1NC(=O)c1cnccn1	4.0%
CCOc1ccc(OCC(=O)OCC(=O)N(CC(C)C)c2c(N)n(Cc3ccccc3)c(=O)[nH]c2=O)cc1	-10.0%
COc1ccc(-c2cc3c(=O)n(CC(=O)NCCCN4CCN(Cc5ccccc5)CC4)ncn3n2)cc1	-2.7%
C=CCN(C(=O)CCC(=O)Nc1cc(C)on1)C(C(=O)NC1CCCC1)c1ccc(Cl)cc1 (stereo not drawn)	14.3%
Cc1ccc(C(=O)N/C(=C\c2ccccc2)C(=O)NCCCn2ccnc2)cc1	0.8%
CC(NCc1ccc2c(c1)OCO2)C(=O)NC1CCCCC1 (stereo not drawn)	4.2%
N#Cc1cccc(CN2CCC(=O)N(CCO)CC2)c1	8.8%
C/C(=N\NC(=O)c1cccnc1)c1c(O)cc(C)oc1=O	-3.4%
C=CC(C1=CC(=O)C(OC)=CC1=O)c1ccccc1 (stereo not drawn)	8.91µM*
CC1(C)CC(N2CCC(=O)N(C3CC(C)(C)NC(C)(C)C3)C2)CC(C)(C)N1	-3.3%
Cc1ccc2nc(Cl)c(/C=N/NC(=O)[C@H]3C[C@@H]3c3ccccc3)cc2c1	2.5%
Fc1ccc(NC(=S)N2CCCN(c3ccc(C(F)(F)F)cn3)CC2)c(F)c1	-1.2%
COc1cc([N+](=O)[O-])cc(/C=N\NC(=O)C2COc3ccccc3O2)c1O (stereo not drawn)	1.6%
Cc1cc(C(=O)N2C(C)CCCC2C)no1 (stereo not drawn)	-4.3%
CCCN(CCC)CCCNC(=O)c1nn(-c2cccc(OC)c2)c(=O)c2ccccc12	4.5%
COCCN1C(=O)C(=O)/C(=C(/O)c2cccc(S(=O)(=O)N(C)C)c2)C12C(=O)N(C)c1ccccc12 (stereo not drawn)	18.5%
CC(C)CCNC(=O)c1ccccc1SCC(=O)NC1CCCCCCC1	-12.5%
O=C(COc1ccccc1F)NNC(=O)Cn1c(=O)cnc2ccccc21	-3.2%
COc1ccc(CNC(=O)c2ccc(Sc3ccc(Cl)cc3)c(NC(C)=O)c2)c(OC)c1	2.1%
Nc1c(Cl)ncnc1NCc1ccccc1	7.3%
C(=C\c1nc(-c2ccccc2)oc1Nc1ccc2ccccc2c1)/c1ccccc1	0.2%
CCOC(=O)c1cc(OC(=O)c2cccc([N+](=O)[O-])c2)n(-c2ccccc2)n1	8.1%
COc1ccc(N/N=C(\C#N)C(=N)N2CCOCC2)cc1	-11.1%
COc1ccc(-n2c(C)nnc2SCc2nc(-c3ccc(OC)c(OC)c3)no2)cc1	11.9%
COc1ccc(S(=O)(=O)N2CCCOC2CNC(=O)C(=O)NCCc2ccco2)cc1C (stereo not drawn)	-4.8%
COc1ccc(-n2nc(C(=O)NCC(=O)NC(C)C)c3ccccc3c2=O)cc1Cl	1.0%
Cc1sc2ncnc(SCC(=O)N3CCC(c4noc5ccc(F)cc45)CC3)c2c1C	-1.0%
